Assay outcomes from PubChem.
AF4-AF9 inh: inhibitors of human MLL-AF4/AF9 interaction. inhibition, % at 10 µM. AlphaScreen, biotin-AF4 peptide binding to FLAG-AF9. AID 651704. 0.47% of 350,000 active. P42568;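 active = every replicate reaching a set inhibition limit, whatever the replicate mean, cut at about 25% in these data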;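 note: 0% = plate neutral control median and 100% = total signal loss; the record names both 10 and 1 µM as test concentration; the first replicate is given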
Target sequence (P42568 whole entry, looked up): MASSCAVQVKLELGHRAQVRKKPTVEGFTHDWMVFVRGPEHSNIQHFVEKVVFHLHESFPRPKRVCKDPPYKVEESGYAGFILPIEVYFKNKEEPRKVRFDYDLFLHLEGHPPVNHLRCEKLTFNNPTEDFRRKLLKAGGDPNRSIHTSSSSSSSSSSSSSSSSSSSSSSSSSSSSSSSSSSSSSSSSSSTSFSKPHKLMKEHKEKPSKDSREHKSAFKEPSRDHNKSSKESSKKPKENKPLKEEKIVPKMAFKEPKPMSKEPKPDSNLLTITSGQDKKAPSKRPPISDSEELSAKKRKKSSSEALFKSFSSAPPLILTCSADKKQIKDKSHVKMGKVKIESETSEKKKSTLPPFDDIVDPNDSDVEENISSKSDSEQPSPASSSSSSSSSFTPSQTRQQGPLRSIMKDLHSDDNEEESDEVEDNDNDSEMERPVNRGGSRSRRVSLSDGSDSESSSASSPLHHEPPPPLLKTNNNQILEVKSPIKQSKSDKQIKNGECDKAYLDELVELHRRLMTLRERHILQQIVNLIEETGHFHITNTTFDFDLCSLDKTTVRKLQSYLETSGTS
FGF22 binding: binders of recombinant human FGF22 by thermal shift | Q9HCT0 | SYPRO orange fluorescence; percent of sucrose octasulfate shift, DMSO zero | calls only at 9.99 µM | 1.5% of 340,000 active;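 active = melting point raised past a set limit in the mean and every replicate; three in four hits are not shown here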
Target sequence (Q9HCT0 whole entry, looked up): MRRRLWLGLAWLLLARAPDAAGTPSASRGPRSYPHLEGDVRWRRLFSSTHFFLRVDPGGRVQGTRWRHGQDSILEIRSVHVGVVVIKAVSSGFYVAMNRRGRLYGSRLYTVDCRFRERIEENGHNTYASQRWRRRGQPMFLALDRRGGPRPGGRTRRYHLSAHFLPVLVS
* marks the source's active call; other numbers are inactive results; i = inactive. This is a subset. The share of hits here may be higher or lower than overall.

SMILES	AF4-AF9 inh	FGF22 binding
COc1ccc(NC(=O)N(C)C[C@H]2OCCCC[C@@H](C)Oc3ccc(N(C)C)cc3C(=O)N([C@H](C)CO)C[C@H]2C)cc1	5.5	i
NCC[C@H]1CC[C@@H](NS(=O)(=O)c2ccc(Cl)cc2)[C@@H](CO)O1	4.2	i
COCC(=O)N(C)C[C@H]1Oc2ncc(-c3ccc(F)cc3)cc2C(=O)N([C@H](C)CO)C[C@@H]1C	-2.7	i
O=C(C[C@@H]1CC[C@@H]2[C@H](COC[C@H](O)CN2Cc2cccc(F)c2)O1)NCc1cccc(F)c1	-0.3	i
CN(C)CCCNC(=O)C[C@H]1CC[C@H](NC(=O)c2ccccc2F)[C@H](CO)O1	-2.6	i
CCCC(=O)Nc1ccc2c(c1)C(=O)N(C)C[C@H](OC)[C@H](C)CN[C@@H](C)CO2	-0.4	i
COc1ccc(-c2ccc3n(c2=O)C[C@@H]2[C@@H](CO)[C@H](C(=O)N(C)C)N(CC4CC4)[C@H]32)cc1	-0.2	i
CNC[C@H]1Oc2c(NC(=O)Nc3ccccc3)cccc2C(=O)N([C@H](C)CO)C[C@H]1C	-0.2	i
O=C(C1CCCC1)N1CCCCN2[C@H](CO)[C@H](c3ccc(-c4cccc(F)c4)cc3)[C@H]2C1	0.8	i
C[C@H](CO)N1C[C@H](C)[C@@H](CN(C)C(=O)NC2CCCC2)Oc2cc(C#Cc3ccc(F)cc3)ccc2S1(=O)=O	-2.6	i
Cc1noc(C)c1NC(=O)Nc1ccc2c(c1)C(=O)N(C)[C@@H]1CC[C@@H](CC(=O)N[C@H]3CCN(Cc4ccccc4)C3)O[C@@H]1CO2	0.7	i
C[C@@H]1CN([C@H](C)CO)C(=O)c2cc(NS(=O)(=O)c3ccccc3)ccc2O[C@H]1CN(C)S(=O)(=O)c1cccs1	-2.4	i
Cc1ccc(S(=O)(=O)N(C)C[C@@H]2Oc3c(NC(=O)Nc4ccccc4)cccc3C(=O)N([C@@H](C)CO)C[C@H]2C)cc1	0.7	i
C[C@H]1CN([C@@H](C)CO)C(=O)c2cc(C#CCc3ccccc3)cnc2O[C@@H]1CN(C)C(=O)C1CCC1	-4.8	i
C[C@H](CO)N1C[C@H](C)[C@H](CN(C)C(=O)Cc2ccccc2)Oc2cc(C3=CCCCC3)ccc2S1(=O)=O	2.6	i
COc1ccccc1-c1ccc2c(c1)[C@@H]1[C@@H](CCN1S(=O)(=O)c1ccccc1F)[C@H](CO)N2	-3.8	i
Cc1ccc(S(=O)(=O)N(C)C[C@@H]2Oc3c(NC(=O)c4ccc(-c5nccs5)cc4)cccc3C(=O)N([C@@H](C)CO)C[C@@H]2C)cc1	-1.3	i
C[C@H]1CN([C@@H](C)CO)C(=O)Cc2cc(NC(=O)Nc3cccc4ccccc34)ccc2O[C@@H]1CN(C)Cc1ccncc1	-10.7	i
C=C[C@H](OC)[C@@H](OC(=O)Nc1ccc(SC)cc1)c1ccc(OCCO)cc1	-0.7	i
Cc1ccc(-c2ccc3c(c2)O[C@@H](CN(C)Cc2cncnc2)[C@@H](C)CN([C@H](C)CO)S3(=O)=O)cc1	-1.1	i
C[C@@H]1CN([C@H](C)CO)C(=O)Cc2cc(NC(=O)CCC(F)(F)F)ccc2O[C@@H]1CN(C)CC1CC1	-1.0	i
COc1ccc2c3c(n(C)c2c1)[C@@H](CO)N(C(=O)C1CC1)CC31CCN(C(=O)CN(C)C)CC1	-0.4	i
CO[C@H]1CN(C)C(=O)c2ccc(NC(=O)C3CC3)cc2OC[C@H](C)N(CC2CCOCC2)C[C@H]1C	-1.0	i
COCc1cn(CC[C@@H]2CC[C@@H](NC(=O)Nc3ccc(F)cc3)[C@@H](CO)O2)nn1	-0.7	i
C[C@@H]1CN([C@H](C)CO)C(=O)Cc2cc(NS(=O)(=O)c3cn(C)cn3)ccc2O[C@@H]1CN(C)CC1CC1	-5.3	i

Sorted by number of heavy atoms (falling): 3 of the compounds above.
SMILES	AF4-AF9 inh	FGF22 binding
Cc1noc(C)c1NC(=O)Nc1ccc2c(c1)C(=O)N(C)[C@@H]1CC[C@@H](CC(=O)N[C@H]3CCN(Cc4ccccc4)C3)O[C@@H]1CO2	0.7	i
Cc1ccc(-c2ccc3c(c2)O[C@@H](CN(C)Cc2cncnc2)[C@@H](C)CN([C@H](C)CO)S3(=O)=O)cc1	-1.1	i
C=C[C@H](OC)[C@@H](OC(=O)Nc1ccc(SC)cc1)c1ccc(OCCO)cc1	-0.7	i

Additional compounds:
SMILES	AF4-AF9 inh	FGF22 binding
CC(=O)N1[C@H](CN(C(=O)c2cccc(F)c2)C(C)C)[C@@H](c2ccccc2)[C@@H]1CO	0.1	i
C[C@H](CO)N1C[C@H](C)[C@H](CN(C)S(C)(=O)=O)Oc2ccc(NC(=O)CCC(F)(F)F)cc2C1=O	0.0	i
Cc1noc(C)c1NC(=O)Nc1ccc2c(c1)CC(=O)N([C@@H](C)CO)C[C@H](C)[C@H](CN(C)C(=O)Nc1ccccc1)O2	-0.8	i
CCC(=O)Nc1ccc2c(c1)OC[C@@H](C)N(C(=O)CC1CC1)C[C@H](C)[C@H](OC)CN(C)C2=O	-2.9	i
C[C@H]1CN([C@@H](C)CO)S(=O)(=O)c2ccc(-c3ccccc3)cc2O[C@H]1CN(C)Cc1cncnc1	0.9	i
CCC(=O)N1C[C@@H](C)[C@@H](OC)CN(C)C(=O)c2cc(NC(=O)C3CCCCC3)ccc2OC[C@H]1C	0.5	i
C[C@@H]1CCCCO[C@H](CN(C)C(=O)C2CCCCC2)[C@@H](C)CN([C@H](C)CO)C(=O)c2cc(NS(C)(=O)=O)ccc2O1	5.4	i
C[C@@H]1CN([C@@H](C)CO)C(=O)Cc2cc(NS(=O)(=O)c3ccccc3)ccc2O[C@@H]1CN(C)CC1CC1	-1.4	i
CO[C@H](CN(C)C(=O)c1cnccn1)[C@H](C)CN([C@H](C)CO)S(=O)(=O)c1ccc(Cl)cc1	-5.8	i
C[C@@H]1CN([C@@H](C)CO)C(=O)c2cccc(NC(=O)CCCCCC(=O)Nc3ccccc3N)c2O[C@@H]1CN(C)Cc1ccc2c(c1)OCO2	-2.4	i
COc1ccc(NC(=O)N(C)C[C@@H]2Oc3ccc(NC(=O)Nc4ccccc4)cc3CC(=O)N([C@@H](C)CO)C[C@@H]2C)cc1	0.7	i
COc1cccc(C(=O)Nc2ccc3c(c2)OC[C@@H](C)N(C(=O)C2CCCC2)C[C@H](C)[C@H](OC)CN(C)C3=O)c1	-8.5	i
C[C@H](CO)N1C[C@H](C)[C@@H](CN(C)C)Oc2cc(C#Cc3cccc(F)c3)ccc2S1(=O)=O	9.2	i
Cc1noc(C)c1C(=O)N(C)C[C@H]1OCc2ccccc2-c2c(n(C)c3ccccc23)C(=O)N([C@@H](C)CO)C[C@@H]1C	-1.7	i
Cc1noc(C)c1S(=O)(=O)Nc1ccc2c(c1)C(=O)N([C@@H](C)CO)C[C@H](C)[C@@H](CN(C)Cc1ccc(C(=O)O)cc1)OCCCC[C@H](C)O2	-10.8	i
Cc1noc(C)c1S(=O)(=O)N(C)C[C@H]1OCCCC[C@H](C)Oc2ccc(NC(=O)NC3CCCCC3)cc2C(=O)N([C@H](C)CO)C[C@@H]1C	1.1	i
C[C@H]1CN([C@@H](C)CO)C(=O)c2cccc(NS(=O)(=O)c3cn(C)cn3)c2O[C@@H]1CN(C)Cc1ccc(C(F)(F)F)cc1	0.3	i
O=C(C[C@@H]1CC[C@H]2[C@@H](COC[C@@H](O)CN2C(=O)Nc2ccc3c(c2)OCO3)O1)N1CCN(c2ccccc2)CC1	-2.2	i
COCC(=O)Nc1ccc2c(c1)[C@@H]1C[C@@H](CC(=O)NCc3ccccn3)O[C@H](CO)[C@@H]1O2	-21.0	i
CC=Cc1ccc2n(c1=O)C[C@@H]1[C@@H](CO)[C@H](C(=O)N[C@@H](C)c3ccccc3)[C@H]2N1CC1CC1 (mixture of isomers)	0.6	i
O=C(NCC[C@@H]1CC[C@H](NC(=O)c2ccc3c(c2)OCO3)[C@H](CO)O1)Nc1ccc(Cl)cc1	10.0	i
Cc1noc(C)c1S(=O)(=O)Nc1ccc2c(c1)C(=O)N([C@@H](C)CO)C[C@@H](C)[C@H](CN(C)C(=O)NC(C)C)OCCCC[C@@H](C)O2	-0.2	i
COCC(=O)N(C)C[C@@H]1Oc2cc(C#CC3CC3)ccc2S(=O)(=O)N([C@@H](C)CO)C[C@H]1C	0.5	i
COc1ccc(NC(=O)N(C)C[C@H]2Oc3ccc(NC(=O)NC(C)C)cc3C(=O)N([C@@H](C)CO)C[C@H]2C)cc1	0.3	i
COc1ccc2c3c(n(C)c2c1)[C@@H](CO)N(Cc1ccc(F)cc1)CC31CCN(CC2CCOCC2)CC1	7.5	i

Whole records as entered above.
Record of `C[C@@H]1CN([C@H](C)CO)C(=O)Cc2cc(NS(=O)(=O)c3cn(C)cn3)ccc2O[C@@H]1CN(C)CC1CC1` : AF4-AF9 inh = -5.3; FGF22 binding = i
Record of `COc1ccc2c3c(n(C)c2c1)[C@@H](CO)N(Cc1ccc(F)cc1)CC31CCN(CC2CCOCC2)CC1` : AF4-AF9 inh = 7.5; FGF22 binding = i

Entries above containing a CF3 group, in the order listed:
SMILES	AF4-AF9 inh	FGF22 binding
C[C@@H]1CN([C@H](C)CO)C(=O)Cc2cc(NC(=O)CCC(F)(F)F)ccc2O[C@@H]1CN(C)CC1CC1	-1.0	i
C[C@H](CO)N1C[C@H](C)[C@H](CN(C)S(C)(=O)=O)Oc2ccc(NC(=O)CCC(F)(F)F)cc2C1=O	0.0	i
C[C@H]1CN([C@@H](C)CO)C(=O)c2cccc(NS(=O)(=O)c3cn(C)cn3)c2O[C@@H]1CN(C)Cc1ccc(C(F)(F)F)cc1	0.3	i

The listing continues.
SMILES	AF4-AF9 inh	FGF22 binding
CC(C)C#Cc1cnc2c(c1)C(=O)N([C@H](C)CO)C[C@@H](C)[C@H](CN(C)C(=O)c1cnccn1)O2	-8.7	i
Cc1noc(C)c1S(=O)(=O)Nc1ccc2c(c1)C(=O)N([C@@H](C)CO)C[C@H](C)[C@H](CN(C)Cc1ccc(C(=O)Nc3ccccc3N)cc1)O2	2.2	i
C/C=C/c1ccccc1[C@@H]1[C@@H](C#N)N(S(=O)(=O)c2cccc(F)c2)[C@H]1CO	-0.9	i
CNC[C@@H]1OCc2ccccc2-c2c(n(C)c3ccccc23)C(=O)N([C@@H](C)CO)C[C@@H]1C	0.5	i
CCCNC(=O)N1CCC2(CC1)CN(C(=O)NC1CCCC1)[C@@H](CO)c1[nH]c3cc(OC)ccc3c12	1.0	i
CN1[C@H](C(=O)Nc2ccccc2)[C@@H](CO)[C@@H]2Cn3c(ccc(-c4ccc(F)cc4)c3=O)[C@@H]21	4.0	i
CC=Cc1ccc2n(c1=O)C[C@@H]1[C@@H](CO)[C@H](C(=O)NCCN3CCCC3)N(C(=O)NCCC)[C@H]21 (mixture of isomers)	1.2	i
CO[C@@H]1CN(C)C(=O)c2cc(NC(=O)c3cnccn3)ccc2OC[C@H](C)NC[C@H]1C	-2.5	i
COc1ccc(-c2cnc3c(c2)C(=O)N([C@@H](C)CO)C[C@@H](C)[C@H](CN(C)C(=O)Cc2cccnc2)O3)cc1	-4.1	i
C[C@H](CO)N1C[C@H](C)[C@@H](CN(C)C(=O)Nc2cccc3ccccc23)OCCCC[C@H](C)Oc2ccc(N(C)C)cc2C1=O	2.3	i
N#Cc1cccc(-c2ccc([C@H]3[C@@H](CO)N4CCCCN(Cc5ccccc5F)C[C@@H]34)cc2)c1	9.1	i
C[C@@H]1CN([C@@H](C)CO)C(=O)Cc2cc(NS(=O)(=O)c3ccc(F)cc3)ccc2O[C@H]1CN(C)Cc1ccccc1	-14.5	i
CCCN(C)C[C@@H]1OCc2cnnn2CCCC(=O)N([C@H](C)CO)C[C@@H]1C	0.1	i
C[C@H](CO)N1C[C@H](C)[C@H](CN(C)S(=O)(=O)c2cn(C)cn2)Oc2ccc(N(C)C)cc2C1=O	-5.6	i
Cc1ccc(S(=O)(=O)N[C@H]2CC[C@H](CCNC(=O)Cc3ccccn3)O[C@@H]2CO)cc1	0.6	i
O=C(NCC[C@H]1CC[C@@H](NS(=O)(=O)c2ccccc2)[C@H](CO)O1)c1ccc2c(c1)OCO2	-1.1	i
C[C@@H]1CN([C@@H](C)CO)C(=O)c2cccc(NC(=O)c3cnccn3)c2O[C@H]1CN(C)Cc1ccccc1	-23.1	i
C[C@@H]1CN([C@@H](C)CO)S(=O)(=O)c2ccc(-c3ccccc3)cc2O[C@@H]1CN(C)Cc1ccccn1	0.7	i
CN(C)C(=O)c1ccc(-c2cccc(-c3nc(C(=O)NC4CCC4)cc4c3[C@@H](CCO)N([S@](=O)C(C)(C)C)C4)c2)cc1	2.7	i
CCCN(C)C[C@@H]1Oc2ncc(C#CC3(O)CCCC3)cc2C(=O)N([C@@H](C)CO)C[C@@H]1C	-2.0	i
CCCC(=O)Nc1ccc2c(c1)C(=O)N(C)C[C@@H](OC)[C@@H](C)CN(C(=O)CN(C)C)[C@@H](C)CO2	0.3	i
C[C@H]1CN([C@@H](C)CO)C(=O)c2cccc(NC(=O)c3nc4ccccc4s3)c2O[C@H]1CN(C)S(=O)(=O)c1cn(C)cn1	-2.4	i
CO[C@H]1CN(C)C(=O)c2ccc(NS(C)(=O)=O)cc2OC[C@H](C)N(C(=O)C2CCC2)C[C@H]1C	-1.2	i
O=C(C1CC1)N1CC2(C1)[C@H](c1ccccc1)[C@H](CO)N2Cc1cncnc1	-0.7	i
CC(C)C#Cc1cnc2c(c1)C(=O)N([C@H](C)CO)C[C@@H](C)[C@@H](CN(C)C(=O)Cc1ccccn1)O2	-12.6	i
C[C@@H]1CN([C@@H](C)CO)C(=O)c2c(c3ccccc3n2C)-c2ccccc2CO[C@@H]1CN(C)S(=O)(=O)Cc1ccccc1	7.2	i
C[C@@H]1CCCCO[C@H](CN(C)C(=O)Nc2ccc(C(F)(F)F)cc2)[C@H](C)CN([C@@H](C)CO)C(=O)c2cc(NC(=O)Nc3ccc(F)cc3)ccc2O1	1.0	i
